NS1 function inh: qHTS Assay for Inhibitors of Influenza NS1 Protein Function | S. cerevisiae slowed by influenza A NS1, growth recovery by OD600 | Potency, µM (top dose mostly 46.1 µM), without a hit: top-dose activity, positive = more growth | actives 0.4% (n = 270,000) | AID 2326, 2010; active means well fitted rising curve with a large enough effect; inconclusive means small, poorly fitted or top-dose-only effect; inactive means no such curve, though single readings can be large or run the other way; also: nearly all actives have a fitted effect of over 50% in size
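In this qHTS, NS1 from influenza A is expressed in budding yeast, where it slows growth. Cells are switched from glucose to 2% galactose medium (pH 6.0, -URA), treated with compound, and growth recovery is read at OD600.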
RE007 growth inh: qHTS Assay for Inhibitors of the HIV-1 protein Vpr | Potency, µM (series often up to 92.2 µM), for the others: top-dose activity change, negative = less growth | S. pombe RE007 Vpr strain, BacTiter-Glo ATP luminescence, 24 h; control for the full effect not named in the record | actives 0.21% (n = 360,000); active = well fitted falling curve with a large enough effect; inconclusive = small, poorly fitted or top-dose-only effect; inactive = no such curve, though single readings can be large or run the other way;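 also: % is scaled to controls: 0 for no effect and ±100 for the full control effect; nearly all actives have a fitted effect of over 50% in size; the assay follows cell death caused by Vpr and the record does not say whether a fall means rescue or toxicity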
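Fission yeast RE007 carrying one integrated HIV-1 vpr copy, seeded at OD 0.01 in PMG+AL medium with 23 nL pinned compound. Grown 24 h at 30 degrees; viability read by BacTiter-Glo luminescence after 5 min.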
Cruzain inh noDet: qHTS Assay for Promiscuous and Specific Inhibitors of Cruzain (without detergent); Cruzipain (Trypanosoma cruzi), P25779; purified cruzain, Z-FR-AMC fluorescence, no detergent; Potency, µM, for inactives: max response, negative = inhibition, actives largely listed as inhibitors; actives 2.3% (n = 200,000); AID 1476, 2009;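 also: plate controls were enzyme without inhibitor for no effect and buffer without enzyme for full effect; nearly all actives have a fitted effect of over 40% in size; top concentration of the series not given in the record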
Target sequence (P25779 123-467 limits assumed): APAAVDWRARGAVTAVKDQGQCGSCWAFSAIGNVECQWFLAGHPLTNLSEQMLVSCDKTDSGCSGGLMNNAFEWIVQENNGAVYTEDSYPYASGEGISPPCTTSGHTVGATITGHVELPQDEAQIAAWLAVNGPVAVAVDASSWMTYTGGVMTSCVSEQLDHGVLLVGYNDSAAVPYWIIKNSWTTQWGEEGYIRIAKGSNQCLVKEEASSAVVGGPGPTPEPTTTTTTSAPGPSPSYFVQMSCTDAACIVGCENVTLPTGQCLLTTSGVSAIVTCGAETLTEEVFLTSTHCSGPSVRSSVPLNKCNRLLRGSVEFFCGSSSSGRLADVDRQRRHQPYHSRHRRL
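Detergent-free condition (0.00005% Triton X-100) in acetate buffer pH 5.5 with DTT. 1.5 nM enzyme and compound were pre-mixed 15 min, then 2 uM Z-FR-AMC substrate added; reaction progress from fluorescence change between first and third reads (60 s).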
SARS PLpro yeast: qHTS of Yeast-based Assay for SARS-CoV PLP; actives 0.19% (n = 330,000); S. cerevisiae expressing SARS-CoV PLpro, growth rescue; control for the full effect not named in the record; Potency, µM (series often up to 32.9 µM), without a hit: top-dose activity, positive = growth rescue; active means well fitted rising curve with a large enough effect; inconclusive means small, poorly fitted or top-dose-only effect; inactive means no such curve, though single readings can be large or run the other way; also: 0% is about no effect; nearly all actives have a fitted effect of over 55% in size; growth read by luminescence after 48 h
LASV entry inh: qHTS for Inhibitors of binding or entry into cells for Lassa Virus; Potency, µM (top dose mostly 37.9 µM), for the others: top-dose activity change, negative = inhibition, hits mostly inhibitors; Lassa virus pseudotype entry inhibition, cell reporter; control for the full effect not named in the record; actives 1.2% (n = 300,000); AID 540256, 2011; active means well fitted inhibition curve with a large enough effect; inconclusive means small, poorly fitted or top-dose-only effect, or effect the other way; inactive means flat fitted curve, though single readings scatter; tested in HEK293 cells; also: % is scaled to controls: 0 for no effect and ±100 for the full control effect; nearly all actives have a fitted effect of over 50% in size; luciferase read-out
Cruzain Triton: qHTS Assay for Promiscuous and Specific Inhibitors of Cruzain (with detergent); actives 0.43% (n = 200,000); Cruzipain (Trypanosoma cruzi), P25779; Potency, µM, inactives show max response, negative = inhibition, most hits filed as inhibitors; AID 1478, 2009; purified cruzain, Z-FR-AMC fluorescence, 0.01% Triton;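 also: plate controls were neutral wells for no effect and buffer without enzyme for full effect; nearly all actives have a fitted effect of over 40% in size; top concentration of the series not given in the record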
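In this qHTS format, compounds are incubated with 1.5 nM cruzain for 15 min at room temperature before 2 uM Z-FR-AMC is added. Release of AMC is followed at 360/450 nm, and progress is taken as the 60 s fluorescence difference.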
StopGo reporter: High Throughput Screening for Foot and Mouth Disease Virus Antivirals; human cells with a luciferase reporter of 2A StopGo recoding; control for the full effect not named in the record; Potency, µM (highest dose often 57.9 µM), for the others: at the highest dose signal change, negative = less light; actives 1.2% (n = 410,000); active = well fitted falling curve with a large enough effect; inconclusive = small, poorly fitted or top-dose-only effect; inactive = no such curve, though single readings can be large or run the other way; tested in HEK293T cells; also: % is scaled to controls: 0 for no effect and ±100 for the full control effect; nearly all actives have a fitted effect of over 45% in size; luciferase light after 4 h
MARV entry inh: qHTS for inhibitors of binding or entry into cells for Marburg Virus; Marburg virus pseudotyped entry inhibition, cell reporter; control for the full effect not named in the record; about a third of the inactives were read at about 46 µM; Potency, µM (top dose mostly 37.8 µM), for the others: at the highest dose activity change, negative = inhibition, most hits filed as inhibitors; actives 1.8% (n = 300,000); active = well fitted inhibition curve with a large enough effect; inconclusive = small, poorly fitted or top-dose-only effect, or effect the other way; inactive = flat fitted curve, though single readings scatter; tested in HEK293 cells; about a fifth of its hits are not listed in these tables; also: % is scaled to controls: 0 for no effect and ±100 for the full control effect; luciferase read-out
Active calls of the source: *; u = inconclusive; x = no result given; [ ] = another dose, or the depositor's remark. Unless noted, calls follow the shape of the dose curve; as a rule, active = well fitted curve in the direction sought with a large enough effect; inconclusive = small, poorly fitted or top-dose-only effect, or another doubt; inactive = no such curve, though single readings can be large; an effect the other way counts as inactive or inconclusive. Potency is read from the fitted curve at half-maximal effect.

mol	Cruzain inh noDet	LASV entry inh	StopGo reporter	RE007 growth inh	SARS PLpro yeast	Cruzain Triton	MARV entry inh	NS1 function inh
COc1ccc(OCC(=O)N/N=C(\C)c2ccc(-n3ccnc3)cc2)cc1	5%	-21%	-8%	2%	-4%	-5.2%	4%	8%
NC(=O)SCC(=O)Nc1ccc(Cl)cc1	-6%	-23%	u	-5%	-2%	-0.9%	-15%	-8%
O=C(Nc1nnc(S(=O)(=O)N2CCCc3ccccc32)s1)c1ccccc1Br	-6%	u	-7%	x	x	-1.5%	x	x
Cc1cc(S(=O)(=O)NCCc2ccncc2)cc(C)c1F	x	u	123%[activator]	-1%	x	x	12%	x
COc1ccc(C)cc1S(=O)(=O)Nc1cc2c3c(c1)CC(=O)N3CCC2	x	3%	45%[activator]	7%	6%	x	-9%	x
COc1ccc(-c2ccc(C#N)c(SCC(=O)NC3CC3)n2)cc1OC	x	x	9%	6%	1%	x	x	-1%
NS(=O)(=O)c1ccc(CNC(=O)CNC(=O)Cc2ccccc2)cc1	x	11%	-19%	-7%	1%	x	-6%[46.1 µM]	-6%
CCOC(=O)C(=O)N1CCN(c2ccccc2OC)CC1	x	-24%	-4%	-4%	-8%	x	u	-7%
Cc1cccc(/C=N/NC(=O)c2ccccc2OCc2cccc(Br)c2)n1	x	u	0%	-26%	-5%	x	u	-20%
CCN1CCn2c3c(c4cccc(C)c42)CCCC31 (stereo not drawn)	x	-4%	-28%	3%	2%	x	u	7%
Cc1ccc(C(=O)N2CCC(C(=O)c3ccc(Cl)cc3)CC2)cc1	x	x	-22%	-7%	-5%	x	x	-19%
O=C(CCC1CCCC1)N1CCN(C(=O)COc2ccccc2)CC1	9%	19%	-1%	-3%	4%	1.6%	u	u
COC(=O)c1ccc(NC(=O)CN2C(=O)CCc3cc(S(=O)(=O)N4CCCCC4)ccc32)cc1	22%	2%[46.1 µM]	-12%	x	x	-5.3%	x	x
O=C(CSc1nc2ccccc2n1Cc1ccccc1Cl)N/N=C/c1ccccc1C(=O)O	x	x	-12%	12%	-1%	x	x	u
NC(=O)c1ccc(NC(=O)COC(=O)CC(NC(=O)c2ccccc2Cl)c2ccccc2)cc1 (stereo not drawn)	-1%	1%[46.1 µM]	-8%	3%	8%	-4.8%	-5%[46.1 µM]	7%
Cc1c[n+]([O-])cc(C)c1[N+](=O)[O-]	x	1%[46.1 µM]	-21%	2%	x	x	-12%[46.1 µM]	x
COC(=O)c1cc(NC(=O)COC(=O)C2CCC2)cc(C(=O)OC)c1	x	-17%	-26%	-1%	0%	x	21%	x
CN(C)c1ccc(CNc2ncc(Br)cc2Br)cc1	-2%	6%	24%	4%	-13%	0.9%	-19%	-12%
COc1ccc(CCN2C(=O)CC(N3CCOCC3)C2=O)cc1OC (stereo not drawn)	13%	5%	2%	-2%	-14%	0.0%	u	-1%
N#Cc1ccc(OCC(=O)OCC(=O)c2ccccc2)cc1	x	2%	34%[activator]	-18%	-11%	x	-7%	x
O=C(Nc1ccccc1)c1cccc(S(=O)(=O)Nc2ccccn2)c1	7%	-1%	53%[activator]	-20%	-4%	-3.5%	0%	11%
Cc1nc2c(C(=O)Nc3ccc(N4CCCC(O)C4)cc3)snc2c(=O)[nH]1 (stereo not drawn)	x	x	-1%	-11%	-7%	x	x	-4%
COc1cc(OC)cc(-c2nc3ccccc3c(=O)n2NC(=O)c2cccnc2Cl)c1	-5%	-1%	-3%	3%	27%	-2.1%	4%	-1%
O=C(CSc1ccccc1F)NC(=O)c1ccc(Cl)cc1	x	u	62%[activator]	-1%	10%	x	u	x
O=C1C(=O)N(C2CCN(S(=O)(=O)c3ccccc3)CC2)CCN1Cc1ccccc1	-9%	17%[46.1 µM]	-15%	x	x	3.5%	x	x
COC(=O)c1ccccc1NC(=O)Cn1cnc2sc(C)c(S(=O)(=O)N3CCC(C)CC3)c2c1=O	-9%	1%[46.1 µM]	-12%	x	x	1.8%	-8%[46.1 µM]	x
C=C(C)C1CC=C(C)/C(=N/NC(=O)CCCNc2cccc(C)c2)C1 (stereo not drawn)	x	-1%	-21%	-8%	-1%	x	-29%[46.1 µM]	0%
COc1cccc(CC(=O)N2CCC(CCC(=O)Nc3cccc(OC)c3)CC2)c1	x	x	-9%	6%	-5%	x	x	-2%
Cc1cc(CN(C)C(=O)CC2C(=O)NCCN2Cc2c(F)cccc2Cl)n[nH]1 (stereo not drawn)	x	20%[46.1 µM]	-6%	-6%	-1%	x	-2%[46.1 µM]	1%
CC(=O)Nc1cc(C(=O)NCc2ccc(F)cc2)ccc1S(=O)(=O)c1ccc(C)cc1	-8%	u	-10%	x	x	1.7%	x	x

5 structures from above, ordered by length of the SMILES, smallest number first:
mol	Cruzain inh noDet	LASV entry inh	StopGo reporter	RE007 growth inh	SARS PLpro yeast	Cruzain Triton	MARV entry inh	NS1 function inh
Cc1c[n+]([O-])cc(C)c1[N+](=O)[O-]	x	1%[46.1 µM]	-21%	2%	x	x	-12%[46.1 µM]	x
N#Cc1ccc(OCC(=O)OCC(=O)c2ccccc2)cc1	x	2%	34%[activator]	-18%	-11%	x	-7%	x
COc1ccc(-c2ccc(C#N)c(SCC(=O)NC3CC3)n2)cc1OC	x	x	9%	6%	1%	x	x	-1%
COC(=O)c1cc(NC(=O)COC(=O)C2CCC2)cc(C(=O)OC)c1	x	-17%	-26%	-1%	0%	x	21%	x
O=C1C(=O)N(C2CCN(S(=O)(=O)c3ccccc3)CC2)CCN1Cc1ccccc1	-9%	17%[46.1 µM]	-15%	x	x	3.5%	x	x

The listing continues:
mol	Cruzain inh noDet	LASV entry inh	StopGo reporter	RE007 growth inh	SARS PLpro yeast	Cruzain Triton	MARV entry inh	NS1 function inh
CC1(C)CC(=O)C=C(Nc2ccccn2)C1	3%	15%	-2%	-5%	4%	-9.4%	7%	5%
COC(=O)C(Cc1ccc(OC(=O)c2ccccc2C)cc1)N1Cc2ccccc2C1=O (stereo not drawn)	-6%	7%	8%	1%	-6%	-4.2%	u	11%
Cc1ccc(Cn2nnc3c(=O)n(CC(=O)c4ccccc4)cnc32)cc1	-11%	x	-5%	7%	-5%	-1.0%	x	6%
COc1ccc(N2C3=[N+](CC2(C)O)c2ccccc2CC3)cc1 (stereo not drawn)	3%	13%	9%	-17%	11%	0.5%	-4%	u
c1ccc(CSc2nnc(Cc3ccccc3)o2)cc1	x	-8%	68%[activator]	1%	-2%	x	-10%[46.1 µM]	-4%
Cc1cc(C)nc(N/C(=N/S(=O)(=O)Cc2ccccc2)Nc2ccccc2)n1	10%	18%	13%	0%	19%	-3.9%	-3%[46.1 µM]	2%
CN(C)c1ccc(/C=N/NC(=O)c2ccc(Cl)cc2)cc1	u	-26%	x	16%	3%	2.7%	-14%	-19%
O=C(Cn1c(=O)c2cccn2c2ccc(F)cc21)NCc1cccc(Cl)c1	28%	2%[46.1 µM]	-2%	x	x	-2.8%	x	x
CCOC(=O)C(C(=O)Nc1cccc(C)n1)C1CCCCC1 (stereo not drawn)	-1%	8%	-14%	16%	0%	-1.3%	-24%	-4%
CC(C)CC(NC(=O)C(Cc1ccc(OCc2ccccc2)cc1)NC(=O)OC(C)(C)C)C(N)=O (stereo not drawn)	-2%	-30%	7%	3%	5%	-1.3%	-15%	18%
Cc1c(F)cccc1NS(=O)(=O)c1ccccc1C#N	1%	19%	x	10%	8%	-0.3%	14%	-7%
Cc1ccc2c(=O)cc(C(=O)Nc3sc4c(c3C(=O)NCc3ccco3)CCC4)oc2c1	-5%	-15%[46.1 µM]	-16%	x	x	-4.2%	12%[46.1 µM]	x
CCOC(=O)CN(Cc1ccc(OC)c(OC)c1)S(=O)(=O)c1ccc(OC)cc1	u	-21%	x	1%	-9%	-5.2%	3%	-11%
C[N+]1=C2CCCCCN2C(O)(c2ccccc2)C1 (stereo not drawn)	-4%	17%	x	6%	2%	4.6%	5%	-1%
CC(C)(C)c1ccc(C(=O)CC(Sc2ccc(Cl)cc2)C(=O)O)cc1 (stereo not drawn)	x	-19%[46.1 µM]	u	-29%	-4%	x	u	x
COc1ccc(C2CC(C(F)(F)F)n3nc(C(N)=O)c(Cl)c3N2)cc1OC (stereo not drawn)	-3%	-4%	-27%	21%	-2%	3.7%	u	-3%
O=C(COC(=O)[C@@H]1CCCN1S(=O)(=O)c1ccc(Cl)cc1)NC12CC3CC(CC(C3)C1)C2	u	-16%	-2%	31%	6%	-6.1%	0%	1%
Cc1noc(C)c1-c1nc(CS(=O)(=O)c2ccc(Cl)cc2)no1	x	-19%	-1%	10%	1%	x	-1%[46.1 µM]	-1%
Cc1ccc(C2(C)NC(=O)N(CC(=O)Nc3cccnc3Cl)C2=O)cc1 (stereo not drawn)	x	-15%[46.1 µM]	-8%	1%	-2%	x	u	x
COc1ccc(Nc2nc(-c3ccc(OC)cc3)c(CCC(=O)O)s2)cc1	x	5%	-13%	6%	2%	x	-4%[46.1 µM]	6%
O=C(COC(=O)c1cccc(Cl)c1)Nc1ccc2[nH]c(=O)[nH]c2c1	x	u	-14%	3%	4%	x	12%	x
CCOC(=O)c1cc(NC(=O)Nc2ccccc2Cl)c(C)nc1C	x	u	u	4%	0%	x	x	2%
